HNF4A DNA FP – change in binding of human HNF4 alpha to DNA. HNF4a-FITC DNA binding, fluorescence polarization, 1 h. P41235. hit rate 0.3% among 360,000. activity change, % at 10 µM; in the data active = activity change above about 30%, passing the limit was not always enough;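 also: controls were the assay level and a saturating level of protein; the project sought stronger binding though the title names inhibitors; some compounds called inactive have numbers as strong as hits; positive values seem to mean higher polarization but the record does not say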
E coli growth – blocks Escherichia coli growth; hit rate 0.21% among 330,000; AID 1053175; OD600 absorbance (no concentration beside the values); OD600, 23 h; stronger effect = lower value;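 active = OD600 absorbance below the run mean of sample wells minus 3.6 SD, in any replicate, cut at about 0.56 in these data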;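 also: stock transfer was 300 nL into about 60 µL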
B2AR ag – activates human beta-2 adrenergic receptor causing internalization; P07550; hit rate 0.43% among 340,000; Am2.2-beta2AR cells, FAP receptor internalization, flow cytometry; reference of the scale not given here; response, % (no concentration beside the values);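 active = response above a set limit, near 3 SD of response in nonfluorescent compounds, cut at about 42% in these data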;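 also: stock transfer was 100 nL into about 11 µL; a reference agonist was the positive control; negative values mostly stem from fluorescent compounds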
UCH37 DUB inh – human UCH37 deubiquitinating enzyme inhibition | Q9Y5K5 | purified proteasome/UCH37, Ub-AMC cleavage fluorescence | inhibition, % (test concentration not listed) | hit rate 0.33% among 330,000 | AID 588478;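 active = mean of two replicates above 20%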;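 also: 0% = compound-free wells with enzyme and 100% = wells lacking proteasome; stock transfer was 100 nL into about 20 µL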
Target sequence (Q9Y5K5 whole entry, looked up): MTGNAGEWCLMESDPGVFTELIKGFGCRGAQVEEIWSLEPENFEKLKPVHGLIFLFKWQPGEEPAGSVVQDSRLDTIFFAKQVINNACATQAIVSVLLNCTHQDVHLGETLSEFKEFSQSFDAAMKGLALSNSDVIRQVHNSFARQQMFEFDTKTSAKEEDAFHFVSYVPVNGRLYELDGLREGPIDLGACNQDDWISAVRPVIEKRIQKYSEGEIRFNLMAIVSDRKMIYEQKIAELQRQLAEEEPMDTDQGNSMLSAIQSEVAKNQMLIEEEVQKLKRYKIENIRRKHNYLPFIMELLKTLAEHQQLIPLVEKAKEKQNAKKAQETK
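assay system = human UCH37 enzyme supplied as purified proteasome complex | amount = proteasome at 0.15 nM in the dispensed enzyme solution | schedule = 30 min compound-proteasome preincubation then 25 min substrate reaction, room temperature | measured by = fluorescence, ex 355 nm, em 460 nm | benchmarks = no-proteasome wells (full inhibition) and compound-free wells (no inhibition)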
rRNA inh HTS – inhibitors of bacterial rRNA selective over humanized ribosomes. hit rate 1.6% among 350,000. E. coli WT GFP vs humanized-ribosome RFP mutants, fluorescence, 24 h; stronger effect = lower value; DMSO median 0, no signal -100. GFP signal change (wild-type ribosome), % (no concentration beside the values);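 active = significant combined selectivity score with lowered wild-type GFP, culture density cut under 30%, mutant RFP and density less affected; inactive = any of these conditions unmet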; also: one replicate is shown; some compounds called inactive have numbers as strong as hits
ALR H2O2 inh – blocks human ALR sulfhydryl oxidase activity | P55789 | purified ALR, DTT oxidation, H2O2 HRP-luminol luminescence | hit rate 3.8% among 290,000 | inhibition, % (test concentration not listed);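 active = mean and each replicate at 75% or more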;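 also: stock transfer was 7.5 nL into about 7.5 µL; 0% = neutral wells and 100% = wells with inactivated enzyme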
Target sequence (P55789 whole entry, looked up): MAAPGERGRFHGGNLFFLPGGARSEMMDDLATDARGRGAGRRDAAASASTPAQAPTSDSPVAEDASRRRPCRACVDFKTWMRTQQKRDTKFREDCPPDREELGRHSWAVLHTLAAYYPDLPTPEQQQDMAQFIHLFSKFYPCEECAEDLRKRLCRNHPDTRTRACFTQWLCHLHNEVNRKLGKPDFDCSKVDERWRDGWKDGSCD
FGF22 binding – shifts melting point of recombinant human FGF22. Q9HCT0. recombinant FGF22 thermal shift, SYPRO orange fluorescence; percent of sucrose octasulfate shift, DMSO zero. calls only at 9.99 µM. hit rate 1.5% among 340,000;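 active = melting point raised past a set limit in the mean and every replicate; three in four hits are not shown here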
Target sequence (Q9HCT0 whole entry, looked up): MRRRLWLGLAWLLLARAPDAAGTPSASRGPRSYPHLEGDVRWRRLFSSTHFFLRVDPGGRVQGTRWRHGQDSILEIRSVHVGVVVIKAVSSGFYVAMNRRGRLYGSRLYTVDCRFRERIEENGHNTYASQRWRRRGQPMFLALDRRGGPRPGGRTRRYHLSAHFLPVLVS
rRNA inh HTS OD600 – also measured in rRNA inh HTS; calls as there; OD600 change, %; measured here: OD600 growth;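 optical density of the mix in the first replicate; 0 = DMSO median and -100 = no signal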
rRNA inh HTS RFP – also measured in rRNA inh HTS; calls as there; RFP signal change, %; measured here: RFP humanized mutant strains;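 first replicate; 0 = DMSO median and -100 = no signal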
* = called active by the depositor; i = inactive; . = no result given; + = active, no number.

compound	FGF22 binding	E coli growth	HNF4A DNA FP	B2AR ag	rRNA inh HTS	rRNA inh HTS RFP	UCH37 DUB inh	ALR H2O2 inh	rRNA inh HTS OD600
COc1ccc(S(=O)(=O)NC2CCCCC2)cc1C(=O)N1CCCCC1	i	0.66	1.4	-8	0	1.8	0.2	-1	3
CCN(CC)CCCNC(=S)N1CCn2c(nc3ccccc32)C1	.	0.69	-1.9	-12	.	.	5.5	-7	.
Cc1cc(N2CCOCC2)nc(-c2ccc([N+](=O)[O-])cc2)n1	.	0.63	0.2	-3	.	.	2.4	100*	.
O=C(/C=C/c1cccc(Cl)c1)Nc1ccncc1	.	0.68	0.0	-5	.	.	7.5	-8	.
O=C(/C=C/c1cccs1)N1CCC2(CC1)Oc1ccc(F)cc1C(=O)C21CC(c2ccc(Cl)cc2)=NO1 (stereo unspecified)	i	.	2.8	-1	19	-2.7	-0.9	-12	8
COC(=O)c1ccc(NC(C)=O)o1	.	0.74	-2.2	-2	.	.	3.3	-9	.
COc1ccc(CN2CCCCCC2)cc1OC	i	0.69	-1.5	-4	16	1.2	4.8	-8	8
Cc1cc(C)n2nc(SCC#N)nc2n1	i	0.73	0.4	1	5	-2.2	1.0	-3	9
CC1CCCN(Cc2nc3c(c(=O)n(C)c(=O)n3C)n2Cc2c(F)cccc2Cl)C1 (stereo unspecified)	i	0.78	-1.4	0	5	-6.5	6.5	.	8
O=S(=O)(Nc1cccc2ncccc12)c1cccc(C(F)(F)F)c1	i	0.66	3.2	5	.	.	1.6	.	.
CC1(C)NC(=O)N(CCCCOc2cccc(C(F)(F)F)c2)C1=O	.	0.69	-3.5	4	.	.	0.9	-13	.
O=C(Nc1nnc(CCN2CCCCC2)s1)c1ccc(Br)cc1	i	0.7	-0.9	-3	10	1.4	1.6	.	-5
Cc1cc(C(=O)COC(=O)c2ccc(Br)o2)c(C)n1C	i	0.67	-2.6	-8	-23*	4.1*	2.9	.	-4.2*
C=CCC[C@H](Cc1ccc(F)cc1)C(=O)OC[C@@H](Cc1c[nH]c2ccccc12)NC(=O)[C@H](CC=C)CC(=O)NCCO	i	.	2.8	0	-7	1.1	-0.1	4	-4
COc1ccccc1/C=C/CN1CCCC(CCC(=O)NCc2ccc(F)c(F)c2)C1 (stereo unspecified)	i	.	1.9	-5	2	2.6	1.8	-18	-5
O=S(=O)(c1cccs1)N1CCN(CC(O)COC2CCCc3ccccc32)CC1 (stereo unspecified)	.	0.72	-1.5	19	.	.	8.1	-13	.
COCCn1c(SCCN2CCCCC2)nc2ccccc2c1=O	.	0.61	0.8	4	.	.	0.5	-13	.
CC(=O)N(C)c1ccc(NC(=O)Cc2cccc3ccccc23)cc1	i	0.71	3.0	-4	0	-1.0	1.0	-1	-2
Cc1ccc(-c2nnn(CC(=O)N(CCN3CCOCC3)C(C(=O)NC(C)(C)C)c3ccco3)n2)cc1 (stereo unspecified)	i	0.65	0.3	0	3	0.4	0.6	-3	-2
CCNc1nc(N)nc(Oc2ccc(C(=O)OC)cc2)n1	.	0.71	-1.1	9	.	.	-0.4	-3	.
COc1ccc(NC(=O)/C(=C/c2ccc(OC(C)=O)c(OC)c2)NC(C)=O)cc1	i	0.61	-2.4	2	6	1.1	1.2	41	7
CSCC[C@H](NC(=O)C1CCN(C(=O)[C@@H](N)Cc2ccccc2)CC1)C(=O)O	i	0.7	0.5	5	14	4.6	4.5	.	13
CSc1nnnn1-c1ccc(C(=O)O)cc1	.	0.69	1.9	1	.	.	0.9	1	.
CCN1C(=O)[C@H]2[C@H]3CN=C(SCc4ccc(C#N)cc4)N3[C@@](Cc3ccccc3)(C(=O)OC)[C@H]2C1=O	.	0.71	3.3	-6	4	-0.7	0.8	.	-13
Cc1cc(=O)oc2ccc(OCC(=O)N3CCc4ccccc43)cc12	.	0.69	-0.5	-6	.	.	-1.6	-8	.
CC1CC(CC(=O)NC(=S)Nc2ccccc2Cl)C(=O)O1 (stereo unspecified)	+	0.71	-0.1	3	6	2.6	4.4	-2	8
CCOC(=O)N1CCN(C(=O)/C(=C/c2ccc(OC)c(OC)c2)NC(=O)c2ccccc2)CC1	i	0.66	11	-2	6	8.0	3.3	-3	1
COCCSc1nnc(NC(=O)C2CC(=O)N(c3ccc(OC)cc3)C2)s1 (stereo unspecified)	i	0.72	-1.4	0	7	0.7	4.8	-4	8
COc1ccccc1N1C(=O)S/C(=C\c2cc(C)n(C)c2C)C1=O	i	0.71	0.1	-1	6	-0.8	-2.3	0	4
Cc1ccc(C)n1-c1ccsc1C(=O)CC#N	i	0.7	0.5	2	6	15	3.4	18	10
CCC(=O)Nc1c(C(=O)N2CCN(c3ccccn3)CC2)cnn1-c1ccc(Cl)cc1	.	0.64	1.8	-1	.	.	-0.2	-3	.
O=C(NCCCNCCCNC(=O)c1ccccn1)c1ccccn1	.	0.74	-4.9	-4	-1	-5.8	4.4	0	7
CC(=O)Nc1ccc(S(=O)(=O)NNC(=O)CCc2ccccc2)cc1	i	0.68	0.4	2	0	-2.8	4.5	30	6
CCCC1(C(=O)OCC)NC(c2ccc(N(C)C)cc2)C2C(=O)N(c3ccccc3)C(=O)C21 (stereo unspecified)	.	0.69	3.2	-6	.	.	3.6	-2	.
OC(Cn1cncn1)c1ccc(Cl)cc1Cl (stereo unspecified)	.	0.78	2.7	-4	.	.	-0.7	-1	.
O=C(Nc1ccccc1)c1cccnc1N1CCOCC1	.	0.75	1.3	-7	6	-2.7	0.8	5	8

ALR H2O2 inh, what is marked active above
compound	FGF22 binding	E coli growth	HNF4A DNA FP	B2AR ag	rRNA inh HTS	rRNA inh HTS RFP	UCH37 DUB inh	ALR H2O2 inh	rRNA inh HTS OD600
Cc1cc(N2CCOCC2)nc(-c2ccc([N+](=O)[O-])cc2)n1	.	0.63	0.2	-3	.	.	2.4	100*	.

Continuation.
compound	FGF22 binding	E coli growth	HNF4A DNA FP	B2AR ag	rRNA inh HTS	rRNA inh HTS RFP	UCH37 DUB inh	ALR H2O2 inh	rRNA inh HTS OD600
CN(Cc1cccc(F)c1)C(=O)C1CC(=O)N(Cc2ccco2)C1 (stereo unspecified)	i	.	-1.3	.	11	3.9	.	.	18
C/C(=N\N1CCN(Cc2ccc(C)cc2)CC1)c1ccco1	i	.	-1.0	-1	14	-4.1	.	3	5
O=C(c1cn(-c2ccccc2)nc1-c1cccnc1)N1CCN(S(=O)(=O)c2ccccc2F)CC1	i	0.7	-0.4	-12	0	5.7	4.6	-1	-6
COc1ccc(C(=O)N2CCNC(=O)C2CC(=O)Nc2cccc(Cl)c2Cl)cc1 (stereo unspecified)	i	.	6.2	2	2	-4.1	.	-3	2
O=C(CCC(=O)OCC(=O)c1ccc(Br)cc1)NC1CCCCC1	.	0.69	-1.9	2	.	.	3.4	-2	.
CCOc1ccc(N(CC(=O)NCc2cccc(OC)c2)S(=O)(=O)c2c(C)noc2C)cc1	.	0.66	-1.9	-8	.	.	1.1	-9	.
CCN(CC)S(=O)(=O)c1cccc(-c2nnc(SCC(=O)c3cc(C)n(C)c3C)o2)c1	.	0.74	1.7	-7	.	.	1.7	1	.
COCCCn1c(SCc2cc(=O)[nH]c3ccccc23)nnc1-c1ccco1	.	0.77	4.0	-5	.	.	4.5	1	.
Cn1c(-n2c(-c3ccco3)nc3ccccc3c2=O)nc2ccccc21	.	0.74	-2.3	-12	.	.	-1.2	-7	.
CCOc1ccccc1NC(=O)c1ccccc1N(C)S(=O)(=O)c1ccc(C)cc1	i	0.69	-2.9	4	-15	2.3	-2.1	-2	-3
C=CCn1c(O)c(N=NC(=S)Nc2cccc(C)c2)c2ccccc21	i	0.7	1.0	-1	-6	1.3	8.1	-7	0
O=[N+]([O-])c1cccc(S(=O)(=O)N2CN(c3ccc(Br)cc3)c3nc4ccccc4nc32)c1	i	0.74	-2.1	-11	-62	-18	7.5	0	-80
CCOC(=O)/C(=N\Nc1ccccc1Cl)N1CCN(Cc2ccccc2)CC1	i	.	2.2	11	6	-8.9	.	-14	-3
Cc1ccc(OCC(=O)N2CCC(N3CCCCCC3)CC2)cc1	.	0.68	6.9	8	.	.	-4.0	-7	.
CCOC(=O)[C@]12CCC=C1N(Cc1ccc3c(c1)OCO3)C(=O)[C@H](CC(=O)NCc1cccc3ccccc13)C2	i	.	1.5	.	8	7.0	.	.	13
CN(Cc1ccccc1)C(=O)COC(=O)C12CC3CC(CC(Br)(C3)C1)C2	i	0.7	-0.4	-3	-14	-4.5	0.8	1	-35
COc1ccc(-c2c[n+](CC(=O)c3ccccc3)c3n2CCCCC3)cc1	i	0.64	1.7	-1	-49*	-14*	3.6	-18	-31*
Cc1ccc(-c2nn(-c3ccccc3)cc2/C=N/NC(=O)CSc2nnc(C)n2-c2ccccc2)cc1	.	.	1.3	89*	.	.	.	-5	.
O=C(c1cccc(-c2ccc(O)cc2)c1)N1CCOCC1	.	0.69	0.8	8	.	.	5.5	99*	.
COCc1[nH][nH]c(=O)c1C=Nc1ccc(C(F)(F)F)cc1	i	0.7	1.6	1	11	6.5	6.7	20	9
CCCCNC(=O)COC(=O)c1ccc(C)c(NC(=O)c2ccco2)c1	i	0.68	-1.5	-4	6	-3.4	3.4	2	-4
Cc1c(Cl)cccc1-n1c(SCC(=O)N2CCC(C(=O)O)CC2)nnc1-c1ccncc1	i	0.71	0.0	-266	19	2.5	-0.5	-7	12
O=C(CCc1nc2ccccc2c(=O)[nH]1)OCc1nnc(-c2ccccc2)o1	.	0.74	1.1	2	.	.	-0.6	.	.
CN(C(=O)CSc1ncnc2sccc12)C1CCCCC1	i	0.7	-0.8	-16	1	-4.6	3.5	-4	2

A stretch from further up, as a working copy:
compound	FGF22 binding	E coli growth	HNF4A DNA FP	B2AR ag	rRNA inh HTS	rRNA inh HTS RFP	UCH37 DUB inh	ALR H2O2 inh	rRNA inh HTS OD600
CCOC(=O)/C(=N\Nc1ccccc1Cl)N1CCN(Cc2ccccc2)CC1	i	.	2.2	11	6	-8.9	.	-14	-3
Cc1ccc(OCC(=O)N2CCC(N3CCCCCC3)CC2)cc1	.	0.68	6.9	8	.	.	-4.0	-7	.
CCOC(=O)[C@]12CCC=C1N(Cc1ccc3c(c1)OCO3)C(=O)[C@H](CC(=O)NCc1cccc3ccccc13)C2	i	.	1.5	.	8	7.0	.	.	13

Next part.
compound	FGF22 binding	E coli growth	HNF4A DNA FP	B2AR ag	rRNA inh HTS	rRNA inh HTS RFP	UCH37 DUB inh	ALR H2O2 inh	rRNA inh HTS OD600
CC(Sc1nnc(CN2CCCC2)n1Cc1ccccc1)C(=O)Nc1ccccc1 (stereo unspecified)	i	0.67	1.1	-5	0	1.4	3.0	1	4
CCc1ccc(OCC(=O)NC2CCCCC2)c(Br)c1	i	0.66	-3.6	3	-14	-8.3	2.8	-9	-28
C[C@@H]1C(=O)O[C@H]2[C@H](O)[C@@]34[C@H]5C[C@@H](C(C)(C)C)[C@]36[C@@H](OC(=O)[C@@H]6O)O[C@@]4(C(=O)O5)[C@@]12O	i	0.69	-1.8	-2	5	-1.1	3.1	-4	10
O=C(NNC1=NS(=O)(=O)c2ccccc21)C1CC(=O)N(c2ccccc2)C1 (stereo unspecified)	i	0.69	5.0	-11	-2	1.2	4.1	3	1
COc1ccccc1Nc1ccc2nonc2c1[N+](=O)[O-]	i	0.66	-7.2	6	14	5.6	3.4	-3	20
CC(Nc1ncnc2sccc12)c1ccccc1 (stereo unspecified)	i	.	3.8	-3	-14	-4.2	.	1	-3
Cc1ccnc(NS(=O)(=O)c2ccccc2)n1	i	0.65	-3.2	7	13	-12	1.6	-1	9

Compound activity (PubChem BioAssay)

An excerpt; rates above refer to the full screens.
